Bioassay records (PubChem)
NPYLR7 ag = activates Aedes aegypti NPYLR7 receptor; HEK293T NPYLR7/Galpha15, GCaMP6s calcium fluorescence; activation, % at 10 µM; 270,000 compounds, 0.15% hits; AID 1259423; in the data active = activation above about 40%;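 also: 0% = vehicle and 100% = reference agonist at the receptor; some compounds past the cut are filed as inactive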
NPYLR7 ag max-min = second read-out of NPYLR7 ag, no call of its own (marks repeat the call); activation, %; measured here: Max-Min RFU normalised activation; some inactives read as strong as hits;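 span of the calcium signal over five minutes; 0% = vehicle and 100% = native peptide agonist; compound fluorescence can raise it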
Numbers without * were called inactive. The list is partial (hit frequency here may not be typical).

A first look, 2 compounds:
The line under a structure holds: NPYLR7 ag | NPYLR7 ag max-min
1: COc1cc(/C=N\Nc2cc(N3CCOCC3)nc(N3CCOCC3)n2)ccc1O
  1 | -2
2: CN1CCN(CCc2ccc(NC(=O)c3cccnc3N3CCCCC3)cc2)CC1
  0 | 4

The whole of this part (from the top)
The line under a structure holds: NPYLR7 ag | NPYLR7 ag max-min
1: COc1cc(/C=N\Nc2cc(N3CCOCC3)nc(N3CCOCC3)n2)ccc1O
  1 | -2
2: CN1CCN(CCc2ccc(NC(=O)c3cccnc3N3CCCCC3)cc2)CC1
  0 | 4
3: O=C1c2cccc3cccc(c23)C(=O)N1CC1CCN(CC(O)COc2ccc3ccccc3c2)CC1 (stereo not given)
  4 | 11
4: O=C(c1ccc(CSc2nc(N3CCN(Cc4ccccc4)CC3)cc(C(F)(F)F)n2)o1)N1CCOCC1
  11 | 8
5: CSCCC(=O)Nc1cc(C(C)(C)C)nn1-c1cccc(F)c1
  9 | 5
6: Cc1nc(C(F)(F)F)nc(N2CC[C@H](CO)[C@@H](O)C2)c1C
  1 | -2
7: O=C(Cn1ccc(=O)c2sccc21)Nc1ccc(Br)cc1
  0 | -2
8: O=C(NCCC(=O)N1CCC[C@H]1CO)c1ccc(F)cc1
  6 | 4
9: CCCN(C(=O)Cc1coc2cc(C)c(C)cc12)C1CCS(=O)(=O)C1 (stereo not given)
  12 | 5
10: Cc1nc(COc2ccc(C(=O)N3CCCC(C(=O)O)C3)cc2)cs1 (stereo not given)
  -3 | -4
11: O=S(=O)(c1ccccc1OC(F)(F)F)N1CCC(c2c[nH]c3ccc(F)cc23)CC1
  35 | 34
12: CCc1nc(SCC(=O)NC(=O)NC2CC2)n[nH]1
  1 | 27
13: c1csc(-c2nnc(SCc3ccc4c(c3)OCO4)n2C2CC2)c1
  2 | 10
14: CC1Cc2ccccc2N1C(=O)CCCn1nc(-c2ccc(F)cc2)ccc1=O (stereo not given)
  10 | 10
15: CCN(Cc1nccn1Cc1ccccc1C)C(=O)c1ccc(F)cc1
  6 | 9
16: CC(C)(C)c1[nH]ncc1C1Nc2ccccc2C(=O)N1C1CC1 (stereo not given)
  -3 | -5
17: Cc1ccc(-n2cccn2)c(CN(C)CC2CCN(Cc3ccc(C)o3)CC2)c1
  3 | -3
18: COc1cccc(NC(=O)NNC(=O)c2ccc(=O)n(Cc3ccc(C)cc3)c2)c1
  4 | 3
19: COc1ccc2nc(-c3ccc(NC(=O)NCc4ccccc4)cc3)cn2n1
  5 | 2
20: CC1CCC(C(C)C)C(OCC(O)CN2CCCCC2)C1 (stereo not given)
  0 | 0

Complete entries, quoted from the list. Order of screens: NPYLR7 ag, NPYLR7 ag max-min
`COc1ccc2nc(-c3ccc(NC(=O)NCc4ccccc4)cc3)cn2n1` reads 5, 2
`O=C1c2cccc3cccc(c23)C(=O)N1CC1CCN(CC(O)COc2ccc3ccccc3c2)CC1` (stereo not given) reads 4, 11

Reprinted at random: 2 compounds from above, in no set order.
The line under a structure holds: NPYLR7 ag | NPYLR7 ag max-min
9: CCCN(C(=O)Cc1coc2cc(C)c(C)cc12)C1CCS(=O)(=O)C1 (stereo not given)
  12 | 5
2: CN1CCN(CCc2ccc(NC(=O)c3cccnc3N3CCCCC3)cc2)CC1
  0 | 4

(list continues)
The line under a structure holds: NPYLR7 ag | NPYLR7 ag max-min
21: Cc1cc2ncc(-c3[nH]ncc3[N+](=O)[O-])cn2n1
  -7 | -13
22: Cc1ccccc1NC(=O)CC(=O)N(C)Cc1snnc1C
  23 | 27
23: CC(C)(C)c1cc(NC(=O)CSc2nnc(-c3cccs3)n2C2CC2)on1
  1 | 0
24: NC1CCN(c2ccccc2C(=O)NCc2ccc(-c3ccccc3)cc2)CC1
  -8 | -3
25: COc1ccc(-c2cc(=O)n(CCc3ccccn3)[nH]2)cc1
  -7 | -11
26: COc1ccc(CN2CCN(C(C)C(=O)Nc3ccc(Br)cc3)CC2)cc1F (stereo not given)
  1 | 0
27: Cc1ccc(-c2nc(-c3cccnc3)no2)cc1
  5 | 10
28: NC(=O)c1ccsc1NC(=O)CSc1nnc(NC2CC2)s1
  -2 | 0
29: C=CCn1c(SCc2nc(C(=O)OCC)cs2)nnc1-c1ccc(OC)cc1
  -9 | -3
30: COCC(=O)N(CCN1C(=O)CSC1c1ccc(F)cc1)C(C)C (stereo not given)
  25 | 30
31: COc1ccc(CN(C)CC(=O)Nc2ccccc2C(=O)NC2CC2)cc1F
  10 | 3
32: CCC(C)N(Cc1nc(C(=O)NCc2cccnc2)co1)Cc1ccc(OC)cc1OC (stereo not given)
  12 | 0
33: COc1ccc(NC(=O)C2CC=CCC2C(=O)N2CCN(c3ccccn3)CC2)cc1 (stereo not given)
  -7 | -16
34: CN(C)C(=O)OCCCc1n(C)cc[n+]1C
  23 | 13
35: O=C(Cc1ccc2c(c1)OCO2)N1CCC2(CCCO2)CC1
  9 | 6
36: Cc1n[nH]c(=O)c(C(=O)N(C)c2nc3c(s2)CC(c2ccccc2)CC3)c1C (stereo not given)
  -3 | 72
37: COc1c2c(c(OC)c3occc13)OC1(CCN(Cc3ccc(C(C)C)cc3)CC1)CC2=O
  12 | 7
38: Cc1c(C(=O)N2C[C@H]3C[C@H](O)[C@H](O)C[C@H]3C2)n(C)c2c(C)cccc12
  3 | 3
39: O=C(CCC1=NNC(=O)CC1)NCc1ccc2nsnc2c1
  -1 | -3
40: Cc1nccn1CCC(=O)N1CCN(Cc2ccc(F)cc2)C(=O)C1
  -2 | -2
41: COc1ccc(-c2c(C)sc(=Nc3ccccc3)n2N2CCOCC2)cc1
  0 | -3
42: CC1CCN(CC(O)CN2CCN(Cc3nccn3C)C(C)C2)CC1 (stereo not given)
  4 | -16
43: Clc1ccc(CNc2nc3c(-c4ccccc4)nnn3c3ccccc23)cc1
  2 | -4
44: CCC(=O)N1N=C2C3CCN(CC3)C2C1c1cccs1 (stereo not given)
  3 | 1
45: COCc1cc(C)nc(OCC(=O)N/N=C\c2ccc(-c3cc([N+](=O)[O-])ccc3C)o2)c1C#N
  -9 | -14
46: Cc1ccc(C)c(OS(=O)(=O)c2cn(C)c(=O)n(C)c2=O)c1
  0 | 0
47: COc1ccccc1OC1CCN(C(=O)c2ccc(-n3cc(NC(=O)c4ccoc4)cn3)cc2)CC1
  18 | 5
48: CC1CN(c2cc(Cl)nc(SCC(=O)N(CCC#N)Cc3cccnc3)n2)CCN1C(=O)c1ccc(F)cc1 (stereo not given)
  -2 | 3
49: Cn1cc(/C=C/c2cc(C(=O)O)c3ccccc3n2)c(=O)n(C)c1=O
  -3 | -5
50: O=C(N[C@H](Cc1ccccc1)C(=O)N1CCC(c2ccc(F)cc2)CC1)OCc1ccccc1
  -28 | -33
51: CCOC(=O)c1cc(-c2cccc(NC(=O)c3ccc(F)cc3)c2)n(-c2ccc(OC)cc2)n1
  21 | 10
52: Cc1occc1C(=O)OCn1nnc2ccccc2c1=O
  19 | 8
53: CCN(Cc1ccncc1)Cc1cccc(C(=O)Nc2nccs2)c1
  13 | 20
54: Cc1ccccc1CC(=O)NNC(=O)C1CCCCC1
  25 | 11
55: CN1CCN(c2ncccc2CNC(=O)c2cnc3c(c2)nnn3C)CC1
  8 | 4
56: COc1cccc(C(=O)N(CCn2cccn2)c2nc3c(F)cccc3s2)c1
  -22 | -26
57: CCOc1ccc(C(=O)NCCNS(=O)(=O)c2ccc(Cl)cc2)o1
  3 | 1
58: COCCn1cnnc1CCNC1CCC2(CCNCC2)CC1
  12 | 8
59: Cc1ccc(-c2cc(O)c3c(c2)CN(Cc2snnc2C)CCO3)s1
  3 | 1
60: Cc1ccc(CN(CCN2CCOCC2)Cc2ccc(C(O)(c3ccccc3)c3ccccc3)o2)s1
  -1 | -2

Values in list order from the list.
Nos. 46 to 52 in NPYLR7 ag max-min: 0, 5, 3, -5, -33, 10, 8
Nos. 46 to 52 in NPYLR7 ag: 0, 18, -2, -3, -28, 21, 19

Following part
The line under a structure holds: NPYLR7 ag | NPYLR7 ag max-min
61: CN(C)CCP(=O)(c1ccccc1)c1ccccc1
  5 | 5
62: CC(=O)c1cc(C(=O)OCC(=O)Nc2ccc(F)cc2)c2ccccn12
  -1 | -9
63: N#Cc1ccc(CON=C2c3ccccc3-c3ccccc32)cc1
  7 | 6
64: O=C1NC(=S)N/C1=C/c1cccc(Oc2ccc([N+](=O)[O-])cc2[N+](=O)[O-])c1
  -11 | -15
65: COc1cc(NC2CCS(=O)(=O)CC2)ncn1
  33 | 21
66: CCN=C(NCC)SCc1cc([N+](=O)[O-])cc2c1OCOC2
  1 | 0
67: COc1cc(C=Nn2c(-c3ccc(Cl)cc3Cl)n[nH]c2=S)cc(OC)c1O
  -3 | -3
68: COc1cccc(C(=O)N2c3ccccc3CC2C)c1O (stereo not given)
  1 | 1
69: Cc1cnc2c(C(=O)N3CCn4nc(C(=O)NC5CC5)cc4C3)cnn2c1
  5 | 1
70: O=S(=O)(NC1CCCOc2ccc(F)cc21)C1=Cc2ccccc2CC1 (stereo not given)
  6 | 4
71: CC1(C)CC(=O)C2=C(C1)OC(c1cccs1)C(C#N)C2=N (stereo not given)
  10 | 4
72: O=c1c2cnn(C3CCS(=O)(=O)C3)c2ncn1Cc1ccc(Cl)cc1 (stereo not given)
  10 | 0
73: CCCn1c(SCC(=O)N(CC(C)C)CC(C)C)n[nH]c1=O
  -1 | 0
74: CCNC(=O)C1(C)CCCN(Cc2cc(-c3ccccc3)nn2C)C1 (stereo not given)
  1 | 1
75: O=c1cc(CSc2ncnc3sc4c(c23)CCCC4)nc2sccn12
  -5 | -7
76: CN(C)Cc1ccc(NC(=O)C2CCN(C(=O)N3CCCC3)CC2)cc1F
  -1 | -3
77: Cc1cc(C)c(S(=O)(=O)N2CCN(c3nc(C4CC4)nc4sc(C)c(C)c34)CC2)c(C)c1
  -9 | 2
78: COc1cccc(COC2CCCN(C(=O)c3ccc(Cl)c(Cl)c3)C2)c1 (stereo not given)
  -2 | 1
79: COC[C@@H]1CCCN1C(=O)c1ccc(-n2nc(-c3cccc(Cl)c3)cc2N)cc1
  -7 | -7
80: COc1ccc(S(=O)(=O)CCCC(=O)N(Cc2ccccc2)c2nc3ccccc3s2)cc1
  7 | 6
81: O=[N+]([O-])c1ccc(OC(F)F)c(C=NNc2ccc([N+](=O)[O-])cc2C(F)(F)F)c1
  5 | 4
82: Cc1nc(-c2ccncc2)ncc1C(C)NC(=O)CCc1cccs1 (stereo not given)
  19 | 9
83: COc1ccc(CN2CCCC(Nc3ccccc3)C2)cc1Cn1cccn1 (stereo not given)
  -6 | -5
84: CCS(=O)(=O)NCCc1csc(-c2ccc(OC)c(OC)c2)n1
  0 | 5
85: CCOc1ccc(S(=O)(=O)N(C(=O)C2CCCCC2)c2ccc3oc(C)c(C(C)=O)c3c2)cc1
  -5 | -11
86: Cc1ccc2nc(Cl)sc2c1
  -19 | -22
87: O=C(NCCN1CCc2ccccc2C1)C1CC(=O)N(Cc2ccncc2)C1 (stereo not given)
  26 | 12
88: O=S1(=O)CCC(S(=O)(=O)NCc2ccccc2)C1 (stereo not given)
  6 | 2
89: O=C(NCc1cccnc1)C1COC2(CCN(C(=O)Cc3ccccc3)CC2)N1C(=O)c1ccc(F)cc1 (stereo not given)
  20 | 32
90: Cc1ccc(CN(CC(O)COCc2ccccc2)CC2CCCO2)o1 (stereo not given)
  20 | 18
91: O=C(COc1cccnc1)N1CCCCC1CCn1cccn1 (stereo not given)
  0 | -5
92: C=c1[nH]/c(=C(/C)c2ccc(Cl)cc2)c(=O)o1
  3 | 2
93: COc1ccc(-c2cccc(-c3ccc(NC(=O)c4ccc(C(F)(F)F)nc4C)cc3)n2)cc1
  17 | 16
94: Cc1csc(NC(=O)c2cn(CC3CCCO3)cc3c(=O)n(-c4ccccc4)nc2-3)n1 (stereo not given)
  18 | 12
95: COc1ccccc1C(C)SCc1cnc(C)cn1 (stereo not given)
  6 | 5
96: COc1cc(F)ccc1-c1c(-c2ccccc2)ncn1CCCO
  16 | 8
97: CC(C)(C)SCCS(=O)(=O)CCSC(C)(C)C
  -5 | -3
98: CCC1CCCCN1C(=O)Nc1cccc2ccccc12 (stereo not given)
  -1 | 8
99: Cc1ccc(OCCOCCOc2ccc(/C=N\n3cnnc3)cc2)cc1C
  -2 | -2
100: O=C(NC1CCS(=O)(=O)c2ccccc21)c1cccs1 (stereo not given)
  12 | 9
101: CCNC(=O)CN1CCCN(C(=O)CSc2ccc(Cl)cc2)CC1
  13 | 16
102: COc1ccc(C(=O)N2CCCC2)c(OC2CCN(C(=O)C3CC=CCC3)CC2)c1 (stereo not given)
  1 | 0
103: Cc1cc(C(=O)CSc2nncn2C)c(C)n1Cc1cccs1
  3 | 8
104: CSCCNC(=O)C1(C)CCN1C(=O)CC(c1ccccc1)c1ccccc1 (stereo not given)
  4 | 4
105: COc1ccc(-c2n[nH]c(=S)o2)cc1OC
  5 | 5
106: CCc1c(C)nc(-c2cccc(C(F)(F)F)c2)nc1N1CCN(C(=O)CCc2ccccc2)CC1
  15 | 28
107: COc1ccc2[nH]c(CNC(=O)C3CC(=O)N(CC(C)C)C3)cc2c1 (stereo not given)
  4 | -3
108: CCc1nccn1CCNC(=O)c1cccc(C2CCNC2)c1 (stereo not given)
  1 | -3
109: Cc1ccc(C(C)N(C)C(=O)C2CCN(c3ccc(F)cc3)C2=O)s1 (stereo not given)
  -11 | 78
110: CC(C)CCN(Cc1c(-c2ccccc2)noc1N1CCN(C)CC1)C(=O)C1CCCC1
  -1 | 7
111: CC(=O)CCc1oc2c(Br)cc(Br)cc2c1-c1ccc(C)o1
  -4 | -11
112: CN(C)CCCN(C(=O)c1ccc(F)cc1)c1nc2ccc(Cl)cc2s1
  -2 | -3
113: CCCC(O)CN(Cc1ccccc1)Cc1nc2scc(-c3cccc(Cl)c3)c2c(=O)[nH]1 (stereo not given)
  10 | 9
